Source: PubChem (National Center for Advancing Translational Sciences (NCATS))
Sfp inh – inhibitors of Bacillus subtilis Sfp phosphopantetheinyl transferase; Biochemical Sfp PPTase activity, qHTS; hit rate 3.5% among 310,000; Potency, µM, inactives show max response, negative = inhibition, hits mostly inhibitors; active = well fitted inhibition curve with a large enough effect; inconclusive = small, poorly fitted or top-dose-only effect, or another doubt; inactive = no such curve, though single readings can be large or run the other way;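 note: the enzyme is Sfp with the accession as filed and its product quenches rhodamine fluorescence; potency is the fitted concentration of half-maximal effect; 0% = enzyme reaction without inhibitor and -100% = no enzyme wells; top concentration of the series not given in the record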
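With Hepes-Na pH 7.6 buffer containing 10 mM MgCl2, Sfp (15 nM) modified BHQ-2-YbbR (12.5 uM) using rhodamine-CoA (5 uM). Two reads 30 minutes apart at 525/598 nm yielded each well's rate.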
Menin-MLL FL inh – displaces fluorescein MLL peptide from human menin. AID 1766. FP activity change, % at 61.4 µM. Fluorescence polarization, fluorescein-MLL peptide displacement from menin. 290,000 tested, under 10 active; inconclusive = falling polarisation curve, or a change in total fluorescence; inactive = total fluorescence flat and polarisation flat or rising; no compound was filed as active; the % refers to the polarisation; negative = inhibition;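 note: % of control where 0% means no effect; inhibitors lower the polarisation; unlabelled MLL peptide was the positive control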
* = called active by the depositor; u = inconclusive; & = joins results of further samples; [ ] = remark or other dose. This is a subset, so the mix of outcomes need not match the whole.

Sfp inh	Menin-MLL FL inh	molecule
3%	4.2[11.7 µM]	COCC#Cc1ccc(C2C(C)CCC3C(=O)N4C(CCC(C)C4c4ccc(C#CCOC)cc4)C(=O)N32)cc1 (stereo not given)
35µM*	u	N#Cc1c(-c2ccccc2)cc(-c2ccco2)c(C#N)c1N
-16%	-5.0[11.7 µM]	COC(=O)C/C=C/C(C)C(OCc1cccc(-c2ccccc2)c1)C1CCCCC1 (stereo not given)
u	u	OCCCc1nc2n(n1)C(c1cccs1)C=C(c1ccccc1)N2 (stereo not given)
9%	-10	O=C(NCCc1ccccc1)c1ccccc1NC(=O)C1CCCCC1C(=O)O (stereo not given)
12%	-1.2	NC(=O)[C@@H]1CCCN1C(=O)[C@H](Cc1cnc[nH]1)NC(=O)[C@@H]1CCC(=O)N1
1%	-8.2	CCCCCC1=C2CNC(C)(C(=O)OC)C=C2C(C)C1=O (stereo not given)
26%	0.9	CCCCC/C=C\C/C=C\C/C=C\CCCCC(=O)NCCCC(=O)O
8%	0.2	C#CCOCCOCCOCCNc1nc(N2CCN(C(=O)[C@H]([C@@H](C)CC)n3cc([C@@H](N)Cc4ccc(O)cc4)nn3)CC2)nc(N2CCN(C(=O)[C@H](CCCCN)n3cc([C@@H](N)CC(C)C)nn3)CC2)n1
8%	-4.6	Cc1ccccc1SCCNC(=O)CCc1ccccc1
6%	1.0	CC(=O)Oc1ccc2c(c1)CCC1C2CC[C@]2(C)C(=O)CCC12 (stereo not given in full)
-3%	0.1	O=C(NCC(=O)N(c1cccnc1)C(C(=O)NC1CCCC1)c1ccc(F)cc1)c1ccco1 (stereo not given)
11%	-2.0	COCCN(CCOC)c1nc(C)nc2c1nc(-c1ccccc1)n2CCN1CCOCC1
-26%	1.6	O=C(O)C(O)C(O)(Cc1ccc(O)cc1)C(=O)O (stereo not given)
13%	1.2	O=C(Cc1c[nH]c2ccccc12)Nc1cccc(S(=O)(=O)N2CCCCC2)c1
16%	-2.8	C=C[C@@H]1[C@@H](C)[C@H](C)C(=O)C([C@H](O)C(C)C)[C@@H]1C (stereo not given in full)
u	-13	Fc1ccccc1/C=C1\CCCC2=C1Nc1ncnn1C2c1ccccc1F (stereo not given)
5%	0.0[11.7 µM]	CC(=O)OCC1OC(C#CCCc2ccccc2)C=CC1OC(C)=O (stereo not given)
1%	5.7[11.7 µM]	CC(C)=CCC/C(C)=C/C=C/C1=CC2(C)CC1(C)C(/C=C(\C)CCC=C(C)C)CC2=O (stereo not given)
9%	-1.4	Cc1cccc(N(CC(=O)NCCSc2nc3ccccc3s2)S(=O)(=O)c2ccccc2)c1
-9%	0.3	C/C=C/C(=O)[C@@H](C)[C@@H](/C=C/C[Si](C)(C)C)c1ccccc1
22µM*	9.9	NC(=O)C(=CNc1nc(-c2ccc(Cl)c(Cl)c2)cs1)C(N)=O
4%	-8.9	C#CCOCCOCCOCCNc1nc(N2CCN(C(=O)[C@H](CCC(=O)O)n3cc(C(N)CO)nn3)CC2)nc(N2CCN(C(=O)[C@H](Cc3ccc(O)cc3)n3cc(C(N)CC(C)C)nn3)CC2)n1 (stereo not given in full)
-10%	-1.7	CN1CCN(CCCN2c3ccccc3Sc3ccccc32)CC1
-8%	4.2	Cc1cc(C(=O)CN2C(=O)NC3(CCCc4ccccc43)C2=O)c(C)n1Cc1ccco1 (stereo not given)
16%&14%&22%	-2.6	COC(=O)[C@@H](N)CSC/C=C(\C)CC/C=C(\C)CCC=C(C)C
-5%	-6.9	COC(=O)C1(Cc2ccccc2)C=C2C(=C(C)C(=O)C2C)CN1 (stereo not given)
-17%	0.3	CCCCn1c(=S)[nH]c2c(oc3ccc(Cl)cc32)c1=O
14%	-8.3	COC(=O)[C@@H]1C[C@H]1[C@@H](N)c1ccccc1
-4%	-2.9	O=C(O)c1cc(-c2ccncc2)nc2ccc(F)cc12

Compound profiles (already shown). Screens in order: Sfp inh, Menin-MLL FL inh
Shown for OCCCc1nc2n(n1)C(c1cccs1)C=C(c1ccccc1)N2 (stereo not given) : u, u
Shown for Fc1ccccc1/C=C1\CCCC2=C1Nc1ncnn1C2c1ccccc1F (stereo not given) : u, -13
Shown for NC(=O)C(=CNc1nc(-c2ccc(Cl)c(Cl)c2)cs1)C(N)=O : 22µM*, 9.9

(list continues)
Sfp inh	Menin-MLL FL inh	molecule
19%	0.8	CCOC(=O)/C=c1\s/c(=C\c2sccc2C)c(=O)n1CC(=O)NCc1ccc(C)cc1
-8%	0.9	CC12CCC=CC1C(c1ccc(F)c(Br)c1)N(Cc1ccccc1)C2=O (stereo not given)
12%	-0.3	N=C(N)c1ccc(N2CCN(C3CCN(CC(=O)O)CC3)CC2)cc1
-12%	8.7	CN1c2ccccc2C(C)(C)C12CC(c1ccc(Cl)c(S(=O)(=O)N3CCCC3)c1)=NO2 (stereo not given)
5%	6.8[24.8 µM]	CO[C@]1(NC(=O)Cc2cccs2)C(=O)N2C(C(=O)O)=C(COC(N)=O)CS[C@H]21
-1%	-1.4	Cc1oc2c(c(C)cc3oc(=O)c(CC(=O)NCC(=O)NCC(=O)O)c(C)c32)c1C
32%[activator]	4.7	CCCCNC(=O)C(c1ccc(OCC(=O)OC)c(C(=O)OC)c1)N(CCC1=CCCCC1)C(=O)CCCCCN1C(=O)NC(c2ccc(-c3ccccc3)cc2)C(C(=O)OCc2ccccc2)=C1C (stereo not given)
-10%	2.4	CNC(=O)C1(C(F)(F)F)CC(CCCO)CCCO1 (stereo not given)
14%	2.5[11.7 µM]	CCOC(=O)CCN1C(=O)[C@H]2[C@H]3[C@H](O)[C@H](O)C/C(=N/NC(=O)OCc4ccccc4)[C@H]3CC[C@@H]2C1=O
15%	3.1	CCOC(=O)C1(CC2CC2)CCN(Cc2ccc(O)c(Cl)c2)CC1
20%	1.8	COC(=O)N1[C@H](C)C=C[C@]1(Cc1ccccc1)C(=O)NCc1ccccn1
22%	u	NC[C@@H]1O[C@H](O[C@H]2[C@H](O)[C@H](O[C@@H]3O[C@H](CO)[C@@H](O)[C@H](N)[C@@H]3O)[C@@H](N)C[C@H]2N)[C@@H](O)[C@H](O)[C@@H]1O
13%	2.3	Cc1ccc2nc(NC3=NCN(C4CCCCC4)CN3)nc(C)c2c1
u	4.9	CC(C)Cc1ccc(CC(=O)O)cc1
8%	-0.4	COc1ccc(CNC(=O)[C@H]2C[C@@H]2[C@H](NP(=O)(c2ccccc2)c2ccccc2)c2ccccc2)cc1OC
11%	2.1	CC1(C)Oc2ccc(/C=C/C(=O)N3CCOCC3)c(O)c2C(N2CCOCC2)C1O (stereo not given)
u	u	O=c1c(O)c(-c2cc(O)c(O)c(O)c2)oc2cc(O)ccc12
8%	0.3	Cn1c(=O)c2[nH]c(N3CCN(c4ccccn4)CC3)nc2n(C)c1=O
23%	-1.6	CC(O)[C@@H]1NC(=O)[C@H](CCCN)NC(=O)[C@@H](Cc2c[nH]c3ccccc23)NC(=O)[C@H](Cc2ccc(O)cc2)NC(=O)[C@@H](NC(=O)[C@H](N)Cc2ccccc2)CSSC(C)(C)C(C(=O)N[C@H](C(N)=O)[C@@H](C)O)NC1=O (stereo not given in full)
0%	-1.2	CCOc1cc(S(=O)(=O)NCc2ccccn2)c(C)cc1C
-8%	2.8	COC(=O)[C@@]1(Cc2ccc(OC)cc2)[C@H]2c3cc(C(=O)N(C)C)n(Cc4ccc(O)c(OC)c4)c3C[C@H]2CN1C(=O)c1ccccc1
2%	-0.1	NCCCC(N)CC(=O)NCC1NC(=O)C(CO)NC(=O)C(N)CNC(=O)C(C2CCN=C(N)N2)NC(=O)/C(=C\NC(N)=O)NC1=O (stereo not given)
5%	-1.4	CCCCCC/C=C/c1ccc(OC)c(C2C3C=CCC(C)C3C(=O)N2Cc2ccccc2)c1 (stereo not given)
0%	9.8[11.7 µM]	Cc1cc2c(nc1C)CCCCN2C[C@H](O)CN1CCCc2nc(-c3ccc(Br)cc3)ccc21
2%	0.5	CCCCNc1nc(C)nc2c1nc(-c1ccccc1)n2CC(C)(C)CN(C)C
12%	3.5	CC(C)C[C@@H](CC(=O)N[C@@H](CCCN)CC(=O)N[C@@H]1CCCC[C@H]1C(=O)N[C@H](CC(=O)N[C@@H](CCC(=O)O)CC(=O)O)Cc1ccccc1)NC(=O)[C@@H]1CCCC[C@H]1N
0%&13%	2.1&-0.3	CCCCNC(=O)C(c1ccc(-c2ccccc2)cc1)N(CCN1CCOCC1)C(=O)CCCCCN1C(=O)NC(c2ccc([N+](=O)[O-])cc2)C(C(=O)OCc2ccccc2)=C1C (stereo not given)
-6%	-4.4	O=C(O)COc1cccc2c1CCC=C2CCO/N=C(\c1ccccc1)c1cccnc1
22%	-0.8	Cc1ccc(C(=O)COC(=O)c2cnccn2)cc1C
-2%	15	NCCCCNS(=O)(=O)c1ccc2c(Cl)cccc2c1

Part of the list above in order of molecular weight, highest first:
Sfp inh	Menin-MLL FL inh	molecule
12%	3.5	CC(C)C[C@@H](CC(=O)N[C@@H](CCCN)CC(=O)N[C@@H]1CCCC[C@H]1C(=O)N[C@H](CC(=O)N[C@@H](CCC(=O)O)CC(=O)O)Cc1ccccc1)NC(=O)[C@@H]1CCCC[C@H]1N
14%	2.5[11.7 µM]	CCOC(=O)CCN1C(=O)[C@H]2[C@H]3[C@H](O)[C@H](O)C/C(=N/NC(=O)OCc4ccccc4)[C@H]3CC[C@@H]2C1=O
19%	0.8	CCOC(=O)/C=c1\s/c(=C\c2sccc2C)c(=O)n1CC(=O)NCc1ccc(C)cc1

More results
Sfp inh	Menin-MLL FL inh	molecule
-2%	-0.9	CC(C)(C)Nc1oc(-c2ccccc2)nc1-c1ccccc1F
3%	u	CC(O)(c1ccc(Cl)cc1)c1ccc(Cl)cc1
12%	1.8	Cc1ccc(-c2nc3ccccc3n3c(C)nnc23)cc1
23%	-6.0	Cc1cccc(C)c1NC(=O)CC12CCCN1CCC2
6%	2.6	CC1(C)C2CC[C@@]1(C)C(=O)C2
6%	0.1	CC(C)c1ccc(NC(=O)CSc2nc3c(c(=O)[nH]2)CCC3)cc1
-10%	-1.4	CCOC(=O)C1=C([Si](C)(C)C)c2ccccc2N(S(=O)(=O)C(F)(F)F)C1C(=O)OCC (stereo not given)
11%	11	CC(C)=CCC/C(C)=C/CC(C)(C)CNCCN1CCNCC1
-3%	-0.3	CCOc1ccc(CCN2C(=O)C(=O)N([C@H](CCCN(C)Cc3ccccc3)CNCc3ccccc3)C[C@@H]2C(C)C)cc1
4%	3.1[11.7 µM]	CCCCc1nc2c(c3c1C[C@H](C)OC3)CN(S(=O)(=O)c1c(C)noc1C)CC2
-9%	u	C=C(CO)C1Cc2c(ccc3c(=O)c4c(oc23)COc2cc(OC)c(OC)cc2-4)O1 (stereo not given)
-8%	2.0	CC1(C)[C@@H](O)CC[C@]2(C)C3C(O)C=C4[C@H]5C[C@@](C)(C(=O)O)CC[C@]5(C)CC[C@]4(C)[C@]3(C)CC[C@@H]12 (stereo not given in full)
9%	-3.0	COc1cc(CCNC(C)=O)c(C(=O)/C=C/c2cccc(OC)c2OC)cc1OC
21%	-3.6[11.7 µM]	CC(C)=NO[C@@H](C)CN1CCCCc2nc(C)c(C)cc21
-19%	-0.4	COC(=O)[C@@]1(Cc2ccc(OC)cc2)[C@H]2c3cc(C(=O)N(C)C)n(Cc4ccc(OC)c(OC)c4)c3C[C@H]2CN1C(=O)c1ccccc1
-1%	5.5	COC(=O)c1[nH]c2ccccc2c1NC(=O)CCN1CCN(C2CCCCC2)CC1
7%	-7.1	CC1C(=O)CCC2[C@]1(C)CCC1[C@]2(C)CC[C@@]2(C)C3CC(C)(C)CC[C@]3(C)CC[C@@]12C (stereo not given in full)
0%	-1.4	Cc1ccc(S(=O)(=O)NCCC(=O)N2CCCCC2)cc1
-5%	1.5	Cc1cc(Oc2ccccc2)nc2ccc(O)cc12
25%	1.0	Cn1c(N2CCN(C(=O)C34CC5CC(CC(C5)C3)C4)CC2)nc2ccccc21
17%	5.0	CC1(C)CC(=O)C2=C(C1)NC(=O)CC2C(=O)NCc1ccc(F)cc1 (stereo not given)
-3%	-2.2	COc1ccccc1/C=N/NC(=Nc1ccc(C)cc1)c1nc2ccccc2s1
u	u	CN(C)c1ccc(/C=C2/C(=O)Nc3ccccc32)cc1
21%	-3.0	CC1(C)C(=O)C(c2ccccc2)=C2CN3C(=O)N(CCc4ccccc4)C(=O)C3(Cc3ccc(F)cc3)C=C21 (stereo not given)
3%	1.8	COc1cc(OC)c(C(C)=O)c(O)c1C
56µM*	u	O=C(O)c1cc(O)c2c(c1)[C@H]([C@H]1c3cc(C(=O)O)cc(O)c3C(=O)c3c(O[C@@H]4OC(CO)C(O)C(O)C4O)cccc31)c1cccc(O[C@@H]3OC(CO)C(O)C(O)C3O)c1C2=O (stereo not given in full)
6%	-5.0	OC[C@@H]1OC(O)[C@@H](O)[C@H](O)[C@@H]1O (stereo not given in full)
u	2.9&2.2	COc1ccc2c(c1)O[C@@H](c1cccc(C(F)(F)F)c1)[C@H](O)C2=O
22%	-0.1	COc1ccccc1-c1nn2c(-c3ccccc3Cl)nnc2s1
-5%&-15%	-2.2&-0.2	COc1ccccc1CNC(=O)c1cccc(-c2ccc(C)c3ccccc23)n1

Copied from the list:
CC(O)(c1ccc(Cl)cc1)c1ccc(Cl)cc1 in Sfp inh: 3%
O=C(O)c1cc(O)c2c(c1)[C@H]([C@H]1c3cc(C(=O)O)cc(O)c3C(=O)c3c(O[C@@H]4OC(CO)C(O)C(O)C4O)cccc31)c1cccc(O[C@@H]3OC(CO)C(O)C(O)C3O)c1C2=O (stereo not given in full) in Sfp inh: 56µM*
